TRPML1 ag – agonists of human TRPML1 channel; AID 624414; actives 0.12% (n = 410,000); Q9GZU1; TRPML1-expressing cells, Ca2+ dye fluorescence, FDSS; host cell line not named in the record; reference of the full effect not given here; activation, % (no concentration beside the values); in the data active = activation above about 50%; inconclusive = about 30% to 50%; inactive = below about 30%; also: 0% is about no effect; the text of the record puts the active cut at 80%
Target sequence (Q9GZU1 whole entry, looked up): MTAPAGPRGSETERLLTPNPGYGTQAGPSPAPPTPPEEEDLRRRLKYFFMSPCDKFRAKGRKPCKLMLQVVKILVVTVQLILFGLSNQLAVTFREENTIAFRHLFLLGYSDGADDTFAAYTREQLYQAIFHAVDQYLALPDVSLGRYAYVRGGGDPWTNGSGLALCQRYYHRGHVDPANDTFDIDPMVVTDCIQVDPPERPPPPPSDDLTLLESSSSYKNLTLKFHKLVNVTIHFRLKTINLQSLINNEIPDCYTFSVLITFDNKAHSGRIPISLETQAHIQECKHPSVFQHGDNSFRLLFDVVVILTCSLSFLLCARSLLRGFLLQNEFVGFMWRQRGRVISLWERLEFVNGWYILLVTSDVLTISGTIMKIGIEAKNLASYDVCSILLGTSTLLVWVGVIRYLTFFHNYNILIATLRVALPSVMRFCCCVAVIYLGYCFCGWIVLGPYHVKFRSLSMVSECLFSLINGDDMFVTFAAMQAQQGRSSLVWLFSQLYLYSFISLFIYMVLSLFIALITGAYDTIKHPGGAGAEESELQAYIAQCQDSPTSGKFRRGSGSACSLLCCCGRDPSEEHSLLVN
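Kinetic FDSS Ca2+ read in Tet-induced TRPML1-DL cells (ABD Ca8 dye plus quencher, 45-90 min RT loading): baseline, then compound, then 110 s agonist window; EC80 agonist 54-4 at 4uM final added afterwards for a 110 s antagonist window.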
TRPML1 inh – human mucolipin-1 channel inhibition | actives 0.02% (n = 390,000) | TRPML1-inducible cells, Ca2+ dye fluorescence, FDSS; stronger effect = lower value; inhibition of EC80 agonist-evoked calcium signal | Q9GZU1 | activity change, negative = inhibition, % (test concentration not listed); in the data active means activity change below about -50%; inconclusive means about -30% to -50%; inactive means above about -30%;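 also: stimulus is agonist 54-4 at its EC80 concentration; % is scaled to controls: 0 for no effect and ±100 for the full control effect; compound concentration not given in the record; the text of the record puts the active cut at -80%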
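Tet-induced TRPML1-DL cells loaded with Ca8 no-wash calcium dye were read kinetically on FDSS. Compound addition was followed by EC80 agonist 54-4 (4 uM final); inhibition was read over 110 s.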
D2 ag – activates the human D2 dopamine receptor. actives 0.084% (n = 360,000). activation, % (test concentration not listed). DiscoveRx PathHunter D2 beta-arrestin, luminescence, 90 min; 100% = 57 uM dopamine signal. P14416; in the data active = activation above about 40%; inconclusive = about 15% to 40%; inactive = below about 15%; also: compound concentration not given in the record; the text of the record calls up to 30% inactive
Target sequence (P14416 whole entry, looked up): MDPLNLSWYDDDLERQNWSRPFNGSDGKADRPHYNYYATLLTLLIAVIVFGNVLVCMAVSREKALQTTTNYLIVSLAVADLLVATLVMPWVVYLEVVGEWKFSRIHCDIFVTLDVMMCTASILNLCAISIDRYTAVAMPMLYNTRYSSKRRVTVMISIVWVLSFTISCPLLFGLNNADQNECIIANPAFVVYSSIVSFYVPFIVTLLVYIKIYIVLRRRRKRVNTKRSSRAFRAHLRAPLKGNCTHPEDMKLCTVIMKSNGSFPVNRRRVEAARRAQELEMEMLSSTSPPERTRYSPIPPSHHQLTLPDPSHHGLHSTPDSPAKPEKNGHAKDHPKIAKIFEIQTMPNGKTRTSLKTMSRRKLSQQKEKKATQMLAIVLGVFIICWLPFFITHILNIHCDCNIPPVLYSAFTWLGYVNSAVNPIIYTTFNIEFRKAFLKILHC
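DiscoveRx PathHunter D2 beta-arrestin cells (2,100/well) attached overnight, then compound-stimulated 90 min at 37 C in HBSS/10 mM HEPES/0.1% Tween-20 buffer; beta-galactosidase complementation read by luminescence after 1 h at ambient temperature. Dopamine 57 uM final (EC100) as control.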
Six1-Eya2 blk – blocks human Six1 binding to Eya2; actives 0.56% (n = 360,000); activity change, % (no concentration beside the values); AlphaScreen GST-Six1/His-Eya2 binding, biochemical; stronger effect = lower value; control for the full effect not named in the record; Q15475+O00167; in the data active = activity change below about -65%; inconclusive = about -30% to -65%; inactive = above about -30%; also: % is scaled to controls: 0 for no effect and ±100 for the full control effect; compound concentration not given in the record
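Six1/Eya2 binding was read as AlphaScreen signal after compounds were pinned into GST-Six1 plus His-tagged Eya2 (5X stock 250/500 nM) in pH 8.0 Tris/NaCl/TCEP buffer, beads added, then incubated 1 h, 37 C, dark.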
CtBP-E1A inh – blocks the CtBP interaction with E1A; AID 651724; AlphaScreen GST-E1A/His-CtBP binding, 1536-well; stronger effect = lower value; control for the full effect not named in the record; activity change, % (test concentration not listed); actives 0.49% (n = 340,000); in the data active means activity change below about -65%; inconclusive means about -30% to -65%; inactive means above about -30%; also: % is scaled to controls: 0 for no effect and ±100 for the full control effect; compound concentration not given in the record
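GST-E1A and His-tagged CtBP (125 nM each as 5X stock) were preincubated with pin-transferred compound for 2 h at 37 °C in the dark, then glutathione donor and nickel acceptor beads were added for 1 h before AlphaScreen reading.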
PINK1 modulator – PINK1 expression modulation | PINK1 immunofluorescence, high-content cytometry, 24 h | Potency, µM (titrated, usually from 76.6 µM), for the others: top-dose activation (PINK1 increase), actives largely listed as activators | actives 0.2% (n = 410,000); active = well fitted activation curve with a large enough effect; inconclusive = small, poorly fitted or top-dose-only effect; inactive = flat fitted curve, though single readings scatter; cell line not stated here;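 also: potency is read from the fitted curve at half-maximal effect; % of control where 0% means no effect; nearly all actives have a fitted effect of over 65% in size; a mitochondrial uncoupler was the plate control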
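Decision-based qHTS: stable cells, 24 h exposure to five compound concentrations, CCCP as control. Fixed cells stained for PINK1 plus nuclear, mitochondrial and cell markers, cytometer read.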
The depositor's hits bear a star; u = inconclusive; x = not tested or not shown; & = joins results of further samples; [ ] = another dose, or the depositor's remark.

SMILES	TRPML1 ag	TRPML1 inh	D2 ag	Six1-Eya2 blk	CtBP-E1A inh	PINK1 modulator
Cc1ccc(CSCCC(=O)NCCC2=CCCCC2)cc1	-0.4	3.4	-3.3	1.2	3.4	0.2%
CCOC(=O)C1=CN(Cc2ccco2)S(=O)(=O)N(CC)C1c1ccccc1 (stereo unspecified)	1.7	-3.0	1.0	-0.8	-1.2	0.1%
COc1ccc(NC(=O)CC2C(=O)N(c3ccc(C)cc3)C(=O)N2Cc2ccc(C)cc2)cc1 (stereo unspecified)	-0.6	-11.0	x	x	x	4.9%
COc1ccc(OC)c(NC(=O)Cc2coc3ccc(C(C)C)cc23)c1	1.7	51.7	x	x	x	-1.6%
COc1ccc(C(=O)Nc2ccc(N3CCOCC3)cc2)cc1S(=O)(=O)NC1CCCC1	-0.7	-1.5	-2.1	-5.0	0.1	4.3%
O=C(Nc1ccc(Cl)cc1)c1ccc(CN2CCc3ccccc3C2)cc1	0.0	3.5	-2.6	-1.2	6.7	7.5%
CCOc1ccc(NC(=O)C2CCN(S(=O)(=O)c3cccs3)CC2)cc1	-0.2	-4.4	4.7	-9.0	-5.6	1.2%
COc1ccc(-n2ncc3c(NCc4cccs4)ncnc32)cc1	0.4	12.8	3.1	-0.6	7.3	x
Nc1ccc2[nH]c(=S)sc2c1	-0.4	-3.9	0.1	-7.3	-9.1	0.1%
CCCCN1C(=O)C(CC(=O)NCC2CCCCC2)CC(C(=O)N(C(C)C)C(C)C)=C1C (stereo unspecified)	-0.6	-16.1	-3.8	8.2	4.9	0.1%
CC(/C=N/NC(=O)c1ccc(Br)cc1)=C\c1ccccc1	0.1	4.1	0.2	-2.3	6.6	x
CCc1ccc(NC(=O)CC(NCc2cccnc2)C(=O)O)cc1 (stereo unspecified)	0.1	4.2	x	x	x	1.2%
Cc1cc(N2CCCCC2)nc(N2CCCCC2)n1	0.7	0.5	-0.1	-1.4	x	-0.4%
NS(=O)(=O)c1cccc(NC(=O)CSc2nnc(C3CC3)n2-c2ccccc2)c1	-1.0	5.5	2.5	-0.9	8.2	0.0%
COc1ccccc1N1CCN(C2CCN(C(=O)c3ccc(F)cc3)CC2)CC1	0.0	u	-2.6	4.9	8.6	0.1%
O=C(Nc1nnc([C@@H]2C[C@H](O)[C@@H](CO)O2)s1)NC(c1ccccc1)c1ccccc1	-0.2	x	-2.1	0.7	-26.3	0.7%
COc1cc(/C(C)=N\NC(=O)CSc2nc3ccccc3n2C)ccc1O	1.1	-12.3	-3.5	3.4	-7.6	1.6%
O=C1C2CCCN2C(=O)N1CCCN1CCN(c2cccc(Br)c2)CC1 (stereo unspecified)	-0.5	-2.1	2.7	0.0	7.6	1.9%
CCOC(=O)C1=C(N)N2C(=O)C(C)SC2=C(C(=O)OCC)C1c1ccccc1 (stereo unspecified)	0.2	-1.5	-1.0	-6.7	-1.5	-0.7%
CCN(CC)S(=O)(=O)c1cccc(-c2n[nH]c(=S)n2CC(C)C)c1	-0.7	41.8	0.0	-15.1	-7.7	-0.3%
CCn1c(C)nc2cc(C(=O)N/N=C/c3ccc(O)c(O)c3O)ccc21	2.1	22.3	0.5	-89.7*	-92.6*	-1.3%
Nc1ccc(S(=O)(=O)c2ccc(NC(=O)c3cccnc3)cc2)cc1	0.7	25.8	-2.5	-15.0	-17.4	-0.2%
CC(C)(C)C1CCc2c(sc(NC(=O)CSc3ncn[nH]3)c2C#N)C1 (stereo unspecified)	-1.0	7.2	-2.2	-9.1	-8.0	u
COC(=O)C1=C(CN2CCCc3ccccc32)NC(=O)NC1c1ccc(F)cc1 (stereo unspecified)	-0.1	-11.5	7.4	-13.1	-14.1	-5.4%[38.3 µM]
COc1ccc(C(=O)OCC(=O)Nc2nc3c(F)c(F)c(F)cc3s2)cc1OC	-0.8	-3.5	-2.1	2.3	9.6	0.5%
CCOC(=O)c1c(NC(=O)COC(=O)CCCOc2ccc(OC)cc2)sc(C(=O)NC)c1C	0.6	-1.2	3.3	-0.2	2.2	-3.5%
Cc1ccccc1NC(=O)c1ccc2c(c1)CCN2S(C)(=O)=O	-1.4	-4.0	3.0	-1.6	-2.4	-1.0%
Cn1cnnc1SCC(=O)Nc1ccc(S(=O)(=O)N2CCOCC2)cc1	-0.3	3.3	1.2	4.6	0.9	-2.2%
COc1ccccc1N1CCN(C(=O)c2[nH]c(C(F)(F)F)nc2-c2ccccc2)CC1	-0.6	x	-3.3	-9.6	-8.9	10.8%
Cc1ccc(S(=O)(=O)N2CCN(C(=O)c3ccc(N4CCCCC4)c([N+](=O)[O-])c3)CC2)cc1	2.3	-19.2	2.5	-4.2	0.0	1.7%
Cc1ccc(S(=O)(=O)N(CC(=O)NCCSCc2ccco2)c2cc(C)ccc2C)cc1	-0.4	0.7	-3.8	0.0	-4.5	-0.7%
CC(C)(OC(=O)c1cccs1)c1cc2ccccc2c(=O)o1	2.8	34.3	0.4	10.8	9.4	-0.9%
CCCc1nc2c(sc3nc4c(cc32)COC(C)(C)C4)c(=O)n1CCN(CC)CC	0.0	-0.2	3.5	-6.7	-5.0	2.7%
NNC(=O)c1cc(-c2ccc(O)cc2)nc2ccc(Br)cc12	-0.8	-5.9	2.9	-4.3	x	2.3%
Cc1ccc(S(=O)(=O)N2CCN(C(=O)c3cccc(F)c3)CC2)cc1	-1.0	-6.4	1.4	6.0	-1.3	-0.9%
Cc1cccc(N2CCN(C(=S)Nc3ccc4nc5n(c(=O)c4c3)CCCCC5)CC2)c1C	-0.2	12.1	-8.1	8.2	-18.2	3.5%
COc1ccc(CN(C(=O)CSc2nnc(-c3ccc(F)cc3)o2)c2ccc(F)cc2)cc1	0.9	-0.7	2.0	-0.3	15.8	0.8%[38.3 µM]
COc1ccc(-c2ccc(SCC(=O)N3CCOCC3)nn2)cc1	-0.8	-6.6	-1.6	1.4	14.9	-2.3%[38.3 µM]
O=c1oc(-c2ccc([N+](=O)[O-])cc2)nc2ccccc12	0.0	-10.1	2.2	-6.7	x	1.9%
Cc1nn(-c2ccccc2)nc1C(=O)NNC(=O)c1cccc2ccccc12	1.9	10.7	-2.0	-4.5	-8.9	1.0%
Cc1[nH]c2ccccc2c1C(=O)CSC(=S)N(C)C	-0.5	-10.9	-1.5	0.2	16.3	0.3%
O=C(NNC(=O)c1ccccc1Br)c1ccc2nc[nH]c2c1	-0.4	-5.8	-3.4	-9.7	-9.1	3.2%
CC(C)CC(=O)Nc1ccc(C(=O)OCc2cc(=O)n3nc(C(C)C)sc3n2)cc1	3.8	4.3	x	x	x	1.1%
CSc1ccc(C(O)c2ncc(-c3cccc(F)c3)[nH]2)cc1 (stereo unspecified)	-0.1	-7.0	-2.4	-29.8	-10.6	2.8%
CC1CC(C)CN(C(=O)C2CC(=O)N(c3ccc(F)cc3)C2)C1 (stereo unspecified)	0.5	-0.7	3.1	-3.6	11.0	-1.4%
CC1CCC/C(=C\Nc2ccc(C(=O)O)c(O)c2)C1=O (stereo unspecified)	0.5	-2.2	-2.8	-14.5	-3.1	-2.6%
COCCCNC(=O)CSc1c2c(nc3ccc(Cl)cc13)CCCC2	-0.5&0.4	-12.6&-11.5	-2.2	-0.6	-13.3	2.1%&0.8%
O=S(=O)(NC1=NCCC1)c1ccc(F)cc1	-0.4	5.7	-2.3	3.8	4.2	0.4%
CN(C)C1=NCCN1CCC1CCCC1	-0.1	14.0	-2.6	-2.2	6.4	-0.4%
CC1(C)N=c2ccc([N+](=O)[O-])c(N)c2=[N+]1[O-]	2.2	23.0	2.7	-14.7	-10.2	-3.4%

Next section.
SMILES	TRPML1 ag	TRPML1 inh	D2 ag	Six1-Eya2 blk	CtBP-E1A inh	PINK1 modulator
CCOC(=O)N1CCN(S(=O)(=O)c2ccc(OCC)cc2)CC1	-0.6	-6.1	10.2	4.0	6.7	0.6%[38.3 µM]
C=CCn1c(SCc2ccc(F)cc2)nnc1-c1sc2nc(C)cc(C)c2c1N	1.0	-1.1	-0.4	13.6	9.4	15.3%
Cc1c(C(=O)N2CCCCC2)c(S(=O)(=O)NCCc2ccccc2)c(C)n1C	0.6	-4.8	8.1	2.4	3.3	0.1%
COC(=O)c1ccc(C(=O)N(C)C2CCCN(Cc3ccccc3F)C2)nc1 (stereo unspecified)	0.3	38.1	-1.8	-3.6	9.1	2.5%
Cc1cc(C)c(NC(=O)CCn2c(=O)c3cccn3c3ccccc32)c(C)c1	2.8	u	x	x	x	-1.0%
Nc1nc(NCC2CCCO2)nc(Nc2ccc(Cl)cc2)c1[N+](=O)[O-] (stereo unspecified)	0.5	7.8	-4.6	-2.1	-4.4	u
COc1ccc(N(CC(=O)NCCc2ccccc2)C(=O)CCC(=O)Nc2nccs2)c(OC)c1	-0.2	-4.1	-0.4	3.0	0.0	0.7%
O=C(COc1ccccc1)N(Cc1cccnc1)c1nc2c(F)cc(F)cc2s1	1.5	29.3	x	x	x	-0.7%
CCN(CC(=O)NCc1ccc(Cl)cc1)C(=O)c1cc(OC)cc(OC)c1	-0.7	-5.2	-2.3	-1.4	-6.9	6.2%
Cc1ccccc1C(=O)Nc1ccc(S(=O)(=O)N2CCOCC2)cc1	-0.6	-19.7	2.4	1.2	8.1	3.2%
Cc1nnc(SC(C)C(=O)NCC2CCCO2)n1-c1ccccc1 (stereo unspecified)	-0.8	-4.2	-3.4	7.4	7.3	-3.2%
Cc1ccc(S(=O)(=O)N2[C@H](c3ccccc3)CC(=O)[C@@H]3CN(S(=O)(=O)c4ccccc4)[C@H](c4ccccc4)C[C@@H]32)cc1	1.0	x	-5.4	3.8	-12.9	0.5%
CC(=O)c1ccc(-n2c(CCC(=O)O)ccc2-c2ccc(C)cc2)cc1	-0.2	13.0	-4.3	-18.3	-6.8	0.3%
O=C(CCc1ccccn1)NC1CCCc2c1cnn2-c1ccc(F)cc1F (stereo unspecified)	-0.8	-4.8	-3.1	5.0	x	1.0%
O=C(CSc1ccccc1)Nc1ccc(C(=O)Nc2cccc(O)c2)cc1	1.5	-4.7	9.8	u	x	7.2%
C/C(=N\OC(=O)c1c(-c2ccccc2Cl)noc1C)c1ccncc1	1.3	10.5	-3.5	14.8	-4.1	2.0%
Cn1nc(C(C)(C)C)cc1C(=O)N1CCCCC1c1cc(C(=O)NCc2ccccc2)no1 (stereo unspecified)	-0.7	x	9.4	2.0	0.0	1.6%
CCOCc1nnc(NC(=O)C2CCN(C(=O)c3ccco3)CC2)s1	-1.5	-3.1	-3.9	2.8	21.8	2.2%
Fc1ccc(OCc2nc3ccccc3s2)cc1	-0.4	13.2	-0.9	16.7	19.3	0.5%
COc1ccc(/C=N/Nc2cc(C)nc(-n3nc(C)cc3C)n2)c(OC)c1	3.1	21.8	-3.3	-75.7*	-72.7*	2.0%
